Assay outcomes: PubChem BioAssay, National Center for Advancing Translational Sciences (NCATS)
Vaccinia mCherry: inhibitors of vaccinia virus infection (mCherry reporter signal); Vaccinia virus mCherry reporter infection, fluorescence; about a quarter of the inactives have no number; Potency, µM (doses to about 36.5 µM), for the others: at the top dose activity change, negative = inhibition, hits mostly inhibitors; 0.63% of 310,000 active; AID 720579; active = well fitted inhibition curve with a large enough effect; inconclusive = small, poorly fitted or top-dose-only effect; inactive = no such curve, though single readings can be large or run the other way; tested in A549 cells; note: nearly all actives have a fitted effect of over 35% in size; inactives centre near -10
VACV Venus inh: inhibitors of vaccinia virus (Venus reporter) | Vaccinia virus Venus reporter expression, fluorescence | Potency, µM (top dose mostly 36.5 µM), inactives show at the highest dose activity change, negative = inhibition, most hits filed as inhibitors | AID 720580 | 0.46% of 330,000 active; active means well fitted inhibition curve with a large enough effect; inconclusive means small, poorly fitted or top-dose-only effect; inactive means no such curve, though single readings can be large or run the other way; tested in A549 cells; note: nearly all actives have a fitted effect of over 30% in size; inactives centre near -10
* = called active by the depositor; i = inactive; ? = inconclusive; nt = no result given; & = joins results of further samples; [ ] = another dose, or the depositor's remark. % is set by controls: 0 for no effect and ±100 for the full control effect; potency is the fitted concentration of half-maximal effect.

compound	Vaccinia mCherry	VACV Venus inh
CS(=O)(=O)c1ccccc1C(=O)Nc1ccc(S(=O)(=O)N2CCCC2)cc1	i	0%
O=C(CNC(=O)c1cccnc1)N/N=C/c1cccnc1	-11%	-2%
O=C(c1ccccc1)C(C(=O)N1CCc2ccccc2C1)n1ccccc1=O (stereo not given)	i	-6%
Cc1ccc(S(=O)(=O)N(CC(=O)Nc2cccc(C(F)(F)F)c2)C(=O)N2CCN(C)CC2)cc1	-18%	-12%
COCCNc1nc2cc(-c3ccc(C)cc3)sc2c(=O)n1C	-5%	-11%
O=C(O)C(c1ccccc1)N1C(=O)/C(=C\c2ccc(-c3ccccc3Cl)o2)SC1=S (stereo not given)	1%	2%
Cc1ccnc(N2C(=O)c3ccccc3C2Nc2ccccc2Cl)c1 (stereo not given)	i	0%
O=C(NCC(c1cccnc1)N1CCN(c2ccccc2F)CC1)C(=O)Nc1ccc(F)cc1F (stereo not given)	-21%	-26%
Cc1ccc2c(c1)N(CCCC(=O)NCc1ccc3c(c1)OCO3)C(=O)CO2	?	-11%
Cc1cc(C)n(S(=O)(=O)c2ccccc2[N+](=O)[O-])n1	?	-8%
CCCCN(C(=O)CNC(=O)c1cccs1)C(C(=O)NC1CCCC1)c1ccncc1 (stereo not given)	i	-7%
COc1ccc(C)cc1NC(=O)Cn1c(=O)oc2ccccc21	-15%	3%
CNC(=O)C(C#N)(Cc1cc(C(C)=O)ccc1OC)Cc1cc(C(C)=O)ccc1OC	7%	-8%
C=CCOc1cccc(C2C(C(=O)c3ccco3)=C(O)C(=O)N2Cc2ccco2)c1 (stereo not given)	-3%	1%
CC(=O)N=c1sccn1CC(O)c1ccc(Br)cc1 (stereo not given)	-17%	-12%
O=C(CN(C(=O)c1csnn1)c1ccc(Br)cc1)NC1CCCC1	-10%	2%
CCOc1ccccc1NC(=O)N1CCCC1C(=O)NCc1cccs1 (stereo not given)	i	-6%
CC1=C([N+](=O)[O-])C(c2ccc(Cl)cc2)NC(=O)N1C (stereo not given)	-26%	-5%
CCC(=O)Nc1cc(Cl)ccc1N1CCN(C(=O)CC)CC1	nt	-15%
O=C(Cn1cnc2c(nnn2Cc2ccc(F)cc2)c1=O)NCC1CCCO1 (stereo not given)	-8%	-1%
CC1Cn2c(nnc2-c2cccs2)S1 (stereo not given)	-4%	-7%
CC(=NCCCO)c1c(O)n(Cc2ccccc2)c(=O)[nH]c1=O	nt	9%
COc1cc(N)ccc1NC(=O)c1cccs1	i	-9%
NC(=O)C1CCN(C(=O)COc2ccc(S(=O)(=O)NC3CCCC3)cc2)CC1	i	6%
COc1ccc(C(C)=O)cc1CSc1nnc(C)n1-c1ccccc1	-25%	-14%

Taken from the listing, 2 compounds:
compound	Vaccinia mCherry	VACV Venus inh
CS(=O)(=O)c1ccccc1C(=O)Nc1ccc(S(=O)(=O)N2CCCC2)cc1	i	0%
O=C(CNC(=O)c1cccnc1)N/N=C/c1cccnc1	-11%	-2%

Additional structures.
compound	Vaccinia mCherry	VACV Venus inh
CCCCNC(=O)Nc1nnc(SCC(=O)OCC)s1	i	0%
COC(=O)/C=C1\SC(=Nc2ccc(Cl)c(Cl)c2)NC1=O	14%	0%
CCOC(=O)c1[nH]c2c(c1Cc1ccccc1)C(=O)CC(c1ccccc1)C2 (stereo not given)	-9%[7.34 µM]	-4%[7.34 µM]
O=C(COC(=O)/C=C/c1ccccc1[N+](=O)[O-])Nc1ccc2[nH]c(=O)[nH]c2c1	i	-8%
O=C(N/N=C/C=C\c1ccccc1[N+](=O)[O-])c1cc(-c2ccccc2)nc2ccccc12	?	?
c1ccc2c(N3CCNCC3)nc(-c3ccc4c(c3)OCO4)nc2c1	i	0%
CCOC(=O)N1CCN(C(=O)c2ccccc2Oc2ccccc2)CC1	nt	7%
CC1(C2CC2)NC(=O)N(CC(=O)Nc2ccccc2F)C1=O (stereo not given)	-9%	-9%
COC(=O)c1c(NC(=O)CCCOc2ccccc2)sc2c1CCC(C)C2 (stereo not given)	-7%	13%
C#CCOCCOCCOCCNc1nc(N2CCN(C(=O)CCCCCCCCCCNC(=O)[C@@H](CCC(=O)O)n3cc(CCCCCN)nn3)CC2)nc(N2CCN(C(=O)CCCCCCCCCCNC(=O)[C@H](CCCCN)n3cc(C[C@@H](C)CC)nn3)CC2)n1	i	?
CC(=O)NC(NC(=S)Nc1ccc(N=Nc2ccccc2C)cc1C)C(Cl)(Cl)Cl (stereo not given)	i	-17%
COc1cccc(C(=O)Nc2nc3nc(C)c(Cc4ccccc4)c(=O)n3[nH]2)c1	i	-1%
Cc1ccccc1-c1nc(NCCN2CCOCC2)c2ccccc2n1	-22%	-25%
O=C(COC(=O)Cc1ccccc1F)NCc1ccccc1Cl	i	-11%
CSc1nsc(SC)c1NC(=O)N1CCCCC1	nt	-13%
CC(C)CCN1CC(=O)N2Cc3[nH]c4ccccc4c3C[C@H]2C1=O	i	-12%
CCCCCn1c(=O)[nH]c2cc(C(=O)N3CCN(c4ccc(C(C)=O)cc4)CC3)ccc2c1=O	i	-9%
C[C@@H](NC(=O)c1[nH]cnc1C(=O)Nc1ccon1)c1ccccc1	-18%	?
Cc1nnn(-c2nonc2N)c1C(=O)N/N=C/c1ccccc1O	?	?
COc1ccc(S(=O)(=O)N2CCCCCC2)cc1NC(=O)CN1C(=O)NC(C)(c2ccc(C)cc2)C1=O (stereo not given)	-26%	-21%
C=CCn1c(CNc2ccc(C)cc2)nnc1SCC(=O)N/N=C/c1ccc(O)cc1	-12%	-4%
CCc1nn(CC(=O)N2CCN(c3cccc(C)c3)C(C)C2)c(=O)c2cc3sccc3n12 (stereo not given)	-3%	-16%
COc1ccc(Cl)cc1NC(=S)NCc1ccccn1	0%	-17%
COC(=O)c1cc(S(=O)(=O)N2CCN(c3cc(Cl)ccc3C)CC2)c[nH]1	-15%	1%
COC(=O)[C@@]1(Cc2ccccc2)[C@H]2C(=O)N(Cc3ccccc3)C(=O)[C@H]2[C@H]2CN=C(SCc3ccc(C#N)cc3)N21	-2%	-16%
S=C(Cc1ccccc1)Nc1ccccc1	i	-15%
COc1ccc(-c2ccc3ccccc3n2)cc1OC	-21%	-17%
Cc1cc(N2CCN(c3ccccn3)CC2)n2nc(C)nc2n1	nt	-15%
CCn1cc2nc(SCc3cccc(C(F)(F)F)c3)n(CCc3ccccc3)c(=O)c2n1	?	-13%
O=C(COC(=O)C1CCCCC1)NCc1ccc(Cl)cc1	i	1%
C=CCOC(=O)C1=C(C)NC(SC)=C(C#N)C1c1cccs1 (stereo not given)	-26%	?
COc1ccc2cc(CCOC3CCCCO3)ncc2c1 (stereo not given)	i	-10%
Cc1ccc(S(=O)(=O)Nc2cc(Cl)ccc2-n2cncn2)cc1	-11%	4%
Cc1ccc(-n2c(=O)[nH]c3sc4c(c3c2=O)CCCC4)cc1	3%	5%
O=C1c2ccccc2C(c2nnnn2Cc2ccccc2)N1Cc1cccs1 (stereo not given)	28%&-6%	4%&-6%
COC(=O)c1ccccc1NC(=O)c1cc(-c2ccc(Cl)cc2)on1	-12%	-3%
Cc1cccc(OCC(=O)NCCNC(=O)c2ccccn2)c1	-9%	5%
COc1ccc(NC(=O)CSc2nnc(Cc3cccn3C)n2-c2ccc(F)cc2)cc1	-18%	-7%
Cc1ccc(NC(=O)COC(=O)CNC(=O)c2cccc([N+](=O)[O-])c2)cc1S(=O)(=O)N1CCCCCC1	-12%	-17%
c1nc2nc3c(c(N4CCOCC4)n2n1)CCCC3	i	-17%
COc1ccc(NC(=O)CN(c2cc(C)cc(C)c2)S(=O)(=O)c2c(C)noc2C)cc1OC	i	-9%
COc1ccc(CNc2nc(Cl)nc3nc[nH]c23)cc1	3%&-21%	-17%&-14%
C[C@]12CC[C@@H]3c4ccc(O)cc4CC[C@H]3[C@@H]1CCC2=O	-5%	-9%&-18%
COc1ccc(N2C(=O)C(CC(=O)O)S/C2=N\N=C\c2cccs2)cc1 (stereo not given)	-11%	-6%
Cc1ccc(-c2cc(C(=O)NN=C3CCCC3)c3ccccc3n2)cc1	-9%	-4%
C[C@H](CO)N1C[C@H](C)[C@@H](CN(C)Cc2ccncc2)OCc2cnnn2CCCC1=O	-14%	-8%
COc1cccc(CNC(=O)CCC2CCCN(c3cc(C)nc(N)n3)C2)c1 (stereo not given)	i	1%
CC(C)[C@H](NS(=O)(=O)c1cccc(Cl)c1)C(=O)OCC(=O)N1CCN(c2ccccc2)CC1	-7%	-16%
COc1cc2c(cc1OC)CN(C(=O)CSc1n[nH]c(N)n1)CC2	-11%	-8%
Cn1nc(C(=O)NCCN2CCOCC2)c2ccccc2c1=O	-9%	-2%

Structures shown so far containing fluorine, in the order listed:
compound	Vaccinia mCherry	VACV Venus inh
Cc1ccc(S(=O)(=O)N(CC(=O)Nc2cccc(C(F)(F)F)c2)C(=O)N2CCN(C)CC2)cc1	-18%	-12%
O=C(NCC(c1cccnc1)N1CCN(c2ccccc2F)CC1)C(=O)Nc1ccc(F)cc1F (stereo not given)	-21%	-26%
O=C(Cn1cnc2c(nnn2Cc2ccc(F)cc2)c1=O)NCC1CCCO1 (stereo not given)	-8%	-1%
CC1(C2CC2)NC(=O)N(CC(=O)Nc2ccccc2F)C1=O (stereo not given)	-9%	-9%
O=C(COC(=O)Cc1ccccc1F)NCc1ccccc1Cl	i	-11%
CCn1cc2nc(SCc3cccc(C(F)(F)F)c3)n(CCc3ccccc3)c(=O)c2n1	?	-13%
COc1ccc(NC(=O)CSc2nnc(Cc3cccn3C)n2-c2ccc(F)cc2)cc1	-18%	-7%

(continued)
compound	Vaccinia mCherry	VACV Venus inh
CCOC(=O)C1(CCOc2ccccc2)CCN(Cc2cnc(C)s2)CC1	i	-10%
COc1ccc(OC)c(C(=O)CSc2nnc(Cc3cccs3)n2CCc2ccccc2)c1	-19%	-24%
O=c1nc2n(c3sc4c(c13)CCCC4)C(CBr)CS2 (stereo not given)	nt	?
Cc1nnc(N2CCC(C(=O)NCc3ccc(N(C)C)cc3)CC2)c2nn(-c3ccccc3)c(C)c12	13µM*	13µM*
COc1ccc(-c2sc3cc4c(cc3c2C#Cc2ccc(N)cc2)OCO4)cc1	?	?
O=C(NC(NC(=S)Nc1c(Cl)cccc1Cl)C(Cl)(Cl)Cl)OCc1ccccc1 (stereo not given)	?	?
Cc1ccccc1NC(=O)C(NS(=O)(=O)c1ccc2c(c1)c(=O)n(C)c(=O)n2C)c1ccccc1 (stereo not given)	-29%	-22%
CCn1c(=O)c2sccc2n2c(CCC(=O)NCc3ccc(Cl)cc3)nnc12	-23%	-11%
O=C1NC[C@H](c2ccccc2)N(CCc2cc(C(F)(F)F)cc(C(F)(F)F)c2)C1=O	i	-8%
N/C(=C\c1ccccc1)c1ccncc1	48%[activator]	15%
CCOC(=O)c1[nH]c2ccc(OCC)cc2c1NC(=O)CN1CCN(c2ccccc2)CC1	nt	-8%
CC(C)=CCC[C@](C)(O[C@@H]1O[C@H](CO[C@@H]2OC[C@H](O[C@@H]3OC[C@@H](O)[C@H](O)[C@H]3O)[C@H](O)[C@H]2O)[C@@H](O)[C@H](O)[C@H]1O)C1CC[C@]2(C)C1[C@H](O)CC1[C@@]3(C)CC[C@H](O)C(C)(C)C3[C@@H](O)C[C@]12C (stereo not given in full)	16%	5%
O=C(CCc1ccc(S(=O)(=O)NC2CCCCC2)cc1)NCc1ccccn1	-27%	-3%
CC1CCC(NC(=O)C(Cc2ccccc2)n2cccc2)CC1 (stereo not given)	-14%	-17%
Cc1ccc(C(=O)N2CCC2(C)C(=O)NC(C)C)cc1 (stereo not given)	41%[activator]	-3%
COCCNC(=O)Cn1cc(S(=O)(=O)N2CCN(c3ccccc3F)CC2)c2ccccc2c1=O	-16%	-6%
COC(=O)c1c(O)ccc(Oc2ccccc2)c1C(=O)OC	i	-9%
CCOC(=O)N1CCN(c2c(NC3CCN(Cc4ccccc4)CC3)c(=O)c2=O)CC1	1%	-11%
Cc1sc2ncnc(OCC(=O)NCC3CCCO3)c2c1C (stereo not given)	-15%	-11%
COc1cc(-c2noc(-c3cc4cccc(C)c4oc3=O)n2)cc(OC)c1OC	-19%	-9%
CCc1cccc(OCC2Cn3c(nc4c3c(=O)n(C)c(=O)n4C)O2)c1 (stereo not given)	i	-18%
O=C1CC2(CCN(C(=O)c3c(F)cccc3Cl)CC2)Oc2ccccc21	-24%	1%
Cc1noc(/C=C/N(C)C)c1S(=O)(=O)N1CCCC(C(=O)NC2CCCCC2C)C1 (stereo not given)	i	-6%
O=C(CSc1ccc2c(c1)OCCO2)N1CCN(c2ccccc2O)CC1	i	-17%
NS(=O)(=O)c1ccc(NC(=S)NNC(=O)c2cccs2)cc1	1%	-14%
Fc1ccc(CNC(=S)Nc2ccccc2Cl)cc1	i	-18%

Reprinted at random: 3 entries already listed
compound	Vaccinia mCherry	VACV Venus inh
CCn1c(=O)c2sccc2n2c(CCC(=O)NCc3ccc(Cl)cc3)nnc12	-23%	-11%
Cc1ccccc1NC(=O)C(NS(=O)(=O)c1ccc2c(c1)c(=O)n(C)c(=O)n2C)c1ccccc1 (stereo not given)	-29%	-22%
O=C(CSc1ccc2c(c1)OCCO2)N1CCN(c2ccccc2O)CC1	i	-17%
